PINK1 modulator = A Quantitative High throughput Screen to Identify Chemical Modulators of PINK1 Expression; PINK1 immunofluorescence, high-content cytometry, 24 h; Potency, µM (highest dose often 76.6 µM), without a hit: at the top dose activation (PINK1 increase), usual class: activators; 410,000 compounds, 0.2% hits; active = well fitted activation curve with a large enough effect; inconclusive = small, poorly fitted or top-dose-only effect; inactive = flat fitted curve, though single readings scatter; cell line not stated here;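 also: potency is read from the fitted curve at half-maximal effect; % of control where 0% means no effect; nearly all actives have a fitted effect of over 65% in size; a mitochondrial uncoupler was the plate control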
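PINK1 protein, normally rapidly degraded, was detected by immunofluorescence after 24 hour compound treatment of a stable cell line. Titration data (5 concentrations) came from laser-scanning cytometry, with CCCP-treated wells as controls.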
D2 PAM = Beta-Arrestin HTS for Positive Allosteric Modulators of the Human D2 Dopamine Receptor: Potentiators; DiscoveRx D2 beta-arrestin cells, luminescence, 90 min; 100% = 57 uM dopamine signal; AID 624464, 2012; potentiation, % (no concentration beside the values); 360,000 compounds, 0.23% hits; D(2) dopamine receptor (Homo sapiens), P14416; active = potentiation of 50% or more; inconclusive = 30% to 50%; inactive = 30% or less;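 also: compound concentration not given in the record; tested on top of an EC20 dose of dopamine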
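PathHunter beta-arrestin assay in DiscoveRx D2 cells. Compounds were added with an EC20 of dopamine (50 nM final) for 90 min at 37 deg C. Luminescence was read 1 h after detection reagent, with 57 uM dopamine as the EC100 control.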
Six1-Eya2 inh = qHTS Assay for Inhibitors of the Six1/Eya2 Interaction; Homeobox protein SIX1 (Homo sapiens) + Protein phosphatase EYA2 (Homo sapiens), …; AlphaScreen GST-Six1/His-Eya2 binding, biochemical; active compounds read low; control for the full effect not named in the record; activity change, % (concentration not given with the values); 360,000 compounds, 0.56% hits; in the data active = activity change below about -65%; inconclusive = about -30% to -65%; inactive = above about -30%; also: % is scaled to controls: 0 for no effect and ±100 for the full control effect
Target sequence (O00167 whole entry, looked up): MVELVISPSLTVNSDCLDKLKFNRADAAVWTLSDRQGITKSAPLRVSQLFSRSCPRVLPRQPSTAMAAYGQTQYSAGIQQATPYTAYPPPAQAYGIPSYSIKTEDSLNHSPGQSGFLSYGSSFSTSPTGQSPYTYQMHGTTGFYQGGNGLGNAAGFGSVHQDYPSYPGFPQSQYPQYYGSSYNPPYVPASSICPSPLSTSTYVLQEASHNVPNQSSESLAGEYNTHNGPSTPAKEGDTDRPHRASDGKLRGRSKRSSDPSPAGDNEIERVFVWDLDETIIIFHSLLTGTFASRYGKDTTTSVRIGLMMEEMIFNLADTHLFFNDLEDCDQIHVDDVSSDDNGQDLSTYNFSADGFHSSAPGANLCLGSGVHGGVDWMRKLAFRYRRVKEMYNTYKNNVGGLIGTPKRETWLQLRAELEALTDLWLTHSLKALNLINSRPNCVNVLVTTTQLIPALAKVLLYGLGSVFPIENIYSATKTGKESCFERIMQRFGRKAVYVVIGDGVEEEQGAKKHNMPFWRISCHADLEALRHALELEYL
Target sequence (Q15475 whole entry, looked up): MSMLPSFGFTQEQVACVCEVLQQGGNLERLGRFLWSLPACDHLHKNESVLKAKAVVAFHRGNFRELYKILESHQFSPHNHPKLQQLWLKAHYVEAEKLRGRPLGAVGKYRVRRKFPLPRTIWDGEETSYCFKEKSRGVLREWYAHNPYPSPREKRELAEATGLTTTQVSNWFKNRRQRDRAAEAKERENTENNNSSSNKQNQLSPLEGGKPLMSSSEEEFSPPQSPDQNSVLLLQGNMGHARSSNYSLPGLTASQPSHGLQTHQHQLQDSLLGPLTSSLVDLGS
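Six1/Eya2 binding was read as AlphaScreen signal after compounds were pinned into GST-Six1 plus His-tagged Eya2 (5X stock 250/500 nM) in pH 8.0 Tris/NaCl/TCEP buffer, beads added, then incubated 1 h, 37 C, dark.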
CtBP-E1A blk = qHTS Assay for Inhibitors of the CtBP/E1A Interaction | AlphaScreen GST-E1A/His-CtBP binding, 1536-well; active compounds read low; control for the full effect not named in the record | CtBP / adenovirus E1A interaction (AlphaScreen) | activity change, % (no concentration beside the values) | 340,000 compounds, 0.49% hits; in the data active means activity change below about -65%; inconclusive means about -30% to -65%; inactive means above about -30%; also: % is scaled to controls: 0 for no effect and ±100 for the full control effect
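AlphaScreen with 125 nM GST-E1A and 125 nM His-CtBP (5X stocks) in Tris pH 8.0, 300 mM NaCl, BSA, Tween 20, TCEP. Compounds preincubated 2 h at 37 deg C, then glutathione donor/nickel acceptor beads added for 1 h at 37 deg C in dark.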
D2 ag = Beta-Arrestin HTS for Positive Allosteric Modulators of the Human D2 Dopamine Receptor: Agonists. D(2) dopamine receptor (Homo sapiens), P14416. DiscoveRx PathHunter D2 beta-arrestin, luminescence, 90 min; 100% = 57 uM dopamine signal. activation, % (test concentration not listed). 360,000 compounds, 0.084% hits. AID 624465, 2012; in the data active = activation above about 40%; inconclusive = about 15% to 40%; inactive = below about 15%; also: compound concentration not given in the record; the text of the record calls up to 30% inactive
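Agonist mode: compounds alone added to overnight-plated D2 PathHunter cells for 90 min at 37 C, with 57 uM final dopamine (EC100) defining full response. Beta-arrestin recruitment detected by chemiluminescent reagent, read after 1 h at ambient temperature.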
Sfp PPTase inh = qHTS Assay for Inhibitors of Bacillus subtilis Sfp phosphopantetheinyl transferase (PPTase); 310,000 compounds, 3.5% hits; Potency, µM, for inactives: max response, negative = inhibition, actives largely listed as inhibitors; 4'-phosphopantetheinyl transferase ffp (Bacillus subtilis), Q9F4F7; Biochemical Sfp PPTase activity, qHTS; active = well fitted inhibition curve with a large enough effect; inconclusive = small, poorly fitted or top-dose-only effect, or another doubt; inactive = no such curve, though single readings can be large or run the other way;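 also: the enzyme is Sfp with the accession as filed and its product quenches rhodamine fluorescence; potency is read from the fitted curve at half-maximal effect; 0% = enzyme reaction without inhibitor and -100% = no enzyme wells; top concentration of the series not given in the record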
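With Hepes-Na pH 7.6 buffer containing 10 mM MgCl2, Sfp (15 nM) modified BHQ-2-YbbR (12.5 uM) using rhodamine-CoA (5 uM). Two reads 30 minutes apart at 525/598 nm yielded each well's rate.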
TRPV1 potentiator = HTS Assay for Compounds that Act as Potentiators of the Vanilloid Receptor 1; Transient receptor potential cation channel subfamily V member 1 (Homo sapiens), Q8NER1; TRPV1-expressing cells, Fluo-8 calcium influx, capsaicin EC20 potentiation; host cell line not named in the record; control for the full effect not named in the record; potentiation, % at 8.33 µM; 320,000 compounds, 0.02% hits; AID 540277, 2011; active means potentiation above 80%; inconclusive means 30% to 80%; inactive means below 30%; also: 0% is about no effect
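Cells expressing TRPV1 were dye-loaded with Fluo-8 and read kinetically: 10 s baseline, 3 min after compound (agonist portion), then 2 min after EC20 capsaicin (allosteric enhancer portion). Calcium-bound dye fluorescence at 480/520 nm.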
Numbers without * were called inactive; ? = inconclusive; · = no result given; & = joins results of further samples; ! = repeats disagree; [ ] = dose if it differs, or a comment.

SMILES	PINK1 modulator	D2 PAM	Six1-Eya2 inh	CtBP-E1A blk	D2 ag	Sfp PPTase inh	TRPV1 potentiator
CN1CCN(NC(=O)Nc2cccc(Cl)c2Cl)CC1	0.2%	-2.1	7.4	-9.3	-5.8	6.0%	1.8
CC1CCCN(C(C(=O)Nc2ccc3c(c2)OCO3)c2ccccc2)C1 (centres undefined)	2.3%	-6.6	-8.6	-6.6	-2.7	10.5%	·
CSCCC1NC(=O)N(CC(=O)Nc2ccc3c(c2)OCCO3)C1=O (centres undefined)	1.3%	-3.6	-4.2	-2.9	-3.0	·	·
O=C(CN(CC1CCCO1)C(=O)CCC(=O)Nc1ccccn1)NCC1CCCO1 (centres undefined)	3.9%	0.8	0.9	10.9	-2.9	14.9%	-0.8
O=C(N/N=C/C=C\c1ccccc1)c1cnccn1	0.7%	-5.3	-3.6	5.2	-2.7	6.2%	-19.5
C=C1C(=O)O[C@H]2C[C@]3(C)C([C@@H](OC(=O)/C(C)=C/C)[C@H]12)[C@](C)(O)CC[C@H]3O (some centres undefined)	3.6%	-5.7	1.6	·	5.4	15.5%	3.4
O=C(NC1CCCCCC1)C1CCC(CNS(=O)(=O)c2ccc(Br)s2)CC1 (centres undefined)	9.6%	-3.4	-4.7	-3.9	-0.6	1.5%	-6.3
COc1cc(C=O)ccc1OCc1ccc(Cl)nc1	0.0%	-0.6	5.5	-8.4	-3.8	14.4%	-1.3
O=C(Nc1ccccc1)OCCOc1ccccc1	-0.2%[38.3 µM]	-9.0	-1.8	-1.8	-4.8	6.3%	-11.4
CCCCCn1c(=N)n(CC(O)COc2ccccc2OC)c2ccccc21 (centres undefined)	-0.9%&6.7%	-3.4&-7.8	-0.4&-10.2	?	-3.8&9.6	25.1µM*!	1.7&1.2
COC(=O)c1c(-c2ccccc2)csc1N1C(=O)Nc2ccccc2N1O	-0.6%	-1.9	-4.2	-10.4	0.1	12.0%	26.0
COc1cc(OC)cc(C(=O)NC(=S)N2CCCCCC2)c1	2.9%	-11.6	-5.5	8.3	-4.4	8.4%	0.9
CC1=C(C(=O)N(C(C)C)C(C)C)CC(CC(=O)NCCc2ccccn2)C(=O)N1CCCN1CCCC1=O (centres undefined)	0.8%	0.3	8.1	-18.7	-4.2	·	·
COC(=O)C1=C(C)NC(=O)/C1=C\c1cc(C)n(-c2c(C)cccc2C)c1C	·	3.8	0.4	-1.1	-0.1	-25.8%	-12.4
O=C(/C=C/c1cccs1)N1CCN(c2ccccc2F)CC1	6.1%	26.2	1.2	1.7	5.9	0.2%	-13.7
CCC1CCCCN1CCCNC(=O)C1CCCN(c2ncnc3c2nc2n3CCCCC2)C1 (centres undefined)	-1.2%	-18.1	-1.4	-0.9	-6.7	13.1%	-10.5
CCCCCN(C(=O)NC(=O)Nc1ccc(C)cc1)S(=O)(=O)c1ccccc1	6.8%	-11.4	0.2	5.2	-1.9	3.6%	7.1
COCCCn1c(=O)c2sccc2n(Cc2ccc(C)cc2)c1=O	0.9%	-2.7	8.8	1.8	-3.2	4.0%	22.8
Cc1cc(OCC(=O)NC2CCN(Cc3ccccc3)CC2)c2c(C)c(C)c(=O)oc2c1	-0.6%	-14.3	5.5	-7.2	-2.9	8.7%	11.1
COC(=O)[C@H](CC(C)C)NC(=O)NCCCc1ccccc1	-0.9%	-1.9	-1.3	9.9	-1.5	12.3%	0.7
CC(NC(=O)c1ccc(NC2=NC3CS(=O)(=O)CC3S2)cc1)c1ccccc1 (centres undefined)	-0.1%	-7.0	2.5	9.1	-6.2	4.5%	-11.9
COc1cc2ccccc2cc1C(=O)Nc1ccccc1N1CCN(S(C)(=O)=O)CC1	6.7%	23.4	-4.8	-1.2	2.5	0.5%	15.4
O=C(NNC(=O)C1CCCO1)c1ccc(F)cc1 (centres undefined)	0.3%	-8.5	5.2	0.2	-5.1	8.0%	-1.0
O=c1oc(-c2ccco2)nc2sc3c(c12)CCCCC3	2.4%	-4.4	0.5	-0.8	-5.0	2.6%	6.0
Cc1nc(NC(=O)c2ccc(Cl)cc2)nc2cc3c(cc12)OCO3	17.7%	-22.6	11.6	5.6	-4.4	22.6%	-1.7
CC(C)(C)OC(=O)NC(Cc1ccccc1)C(=O)N1CCCC1C(=O)O (centres undefined)	-0.1%	-14.3	2.1	-1.5	-6.6	7.7%	1.2
CN(C(=O)CSc1ncc(C(F)(F)F)cc1Cl)c1c(N)n(Cc2ccccc2)c(=O)[nH]c1=O	-1.0%	0.5	3.1	-9.2	-1.4	18.5%	-1.5
O=C(CSCc1ccc(Cl)cc1)NCc1ccccn1	1.6%	-7.3	7.4	·	-4.8	3.8%	-2.8
COC(=O)[C@]12CCCCC=C1N(Cc1ccco1)C(=O)[C@H](CC(=O)N1CCSCC1)C2	2.2%	·	-4.1	-1.9	·	·	·
O=C1C2C3C=CC(O3)C2C(=O)N1N=C1CCCCC1 (centres undefined)	0.7%	-2.5	-4.0	-9.8	-1.1	·	·
CN(Cc1cccc(F)c1)C(=O)c1ccc(S(=O)(=O)C(F)F)cc1	1.1%	-9.8	-4.7	-14.7	-3.7	11.3%	-10.8
CCOC(=O)Cc1csc(NC(=O)c2cc(C)on2)n1	0.6%	4.3	-0.1	-0.1	-0.2	·	·
CN(C)CCCN(C(=O)c1ccc(C(=O)c2ccccc2)cc1)c1nc2ccc(F)cc2s1	-1.8%	-19.2	?	·	0.1	-23.0%	6.5
O=C(c1c[nH]c2ccccc12)N1CCN(Cc2ccccc2)CC1	0.8%	-28.7	-4.5	3.5	-6.4	20.6%	2.6
CCN(C(=O)CSc1nnc(-c2cccc(F)c2)n1N)c1c(N)n(Cc2ccccc2)c(=O)[nH]c1=O	3.9%	-1.5	-8.1	8.9	-2.1	·	·
N#CCNC(=O)C1CC(=O)N(CCc2ccc(F)cc2)C1 (centres undefined)	-0.6%	-3.6	-11.1	-3.7	3.2	0.1%	-0.3
Cc1ccc(C(C(=O)NCc2ccco2)N(C(=O)Cn2nnc3ccccc32)c2ccccc2)o1 (centres undefined)	-0.6%	-20.5	-8.2	-1.7	-2.0	-13.0%	10.5
CCOC(=O)CSc1nc2ccsc2c(=O)n1C1CCN(C(=O)OCC)CC1	-2.6%[38.3 µM]	5.6	-11.9	-7.0	4.0	?	-9.5
CCOC(=O)N1CCN(S(=O)(=O)c2ccc(C(=O)NNc3nc4c(C)cccc4s3)cc2)CC1	10.1%	1.0	-13.6	-0.8	?	?	15.8
CCc1ccc[n+](-c2[nH]c(=O)sc2/C=N/N=C(\[O-])CCn2c3ccccc3c3ccccc32)c1	1.0%	-9.8	-7.5	-8.8	-4.5	-23.7%	5.3
COc1ccc(C(=O)OCCN2CCN(C3=NS(=O)(=O)c4ccccc43)CC2)cc1OC	0.5%	-8.2	4.8	-7.1	-0.5	18.3%	-16.6
Nc1cc(=O)[nH]c(SCc2nnc(-c3ccccc3)o2)n1	-0.6%	-8.1	5.9	-1.9	-0.6	6.5%	13.1
CCN(CC)CCCNc1cc(C(F)(F)F)c(C#N)c2nc3ccccc3n12	-2.3%	-10.4	-22.8	-9.8	-5.9	?	-5.6
Cc1ccc(Nc2nc(CSc3nnc(-c4cccnc4)n3-c3ccccc3C)cs2)cc1	-1.2%	-20.5	-25.2	-17.3	-3.6	-40.2%	-1.9
CN(CC(=O)Nc1ccc(Cl)c(C(F)(F)F)c1)S(=O)(=O)c1cnc[nH]1	4.4%	-3.9	-1.8	-0.3	1.6	·	·
COc1ccc(O)c(C2=Nc3ccccc3N=C(c3ccccc3)C2)c1	18.7%&12.3%	1.1	-1.3	-11.3	1.5	14.7%	-1.9
Cc1ccc(S(=O)(=O)/C(C#N)=C/c2c(N3CCN(C)CC3)nc3c(C)cccn3c2=O)cc1	0.1%	-52.7	?	?	-0.9	-9.1%	-6.0
COc1ccccc1C1=NNC(=NCc2ccccc2)SC1	1.7%	-14.1	-6.1	0.0	-2.7	-70.9%	3.0
Cc1ccc(C(=O)NNC(=O)CSc2nnc3c(n2)[nH]c2ccc(C)cc23)cc1	7.4%[38.3 µM]	-1.4	-20.0	-8.1	-1.1	-9.1%	14.7
Cc1ccc(F)cc1NC(=S)NCCc1ccccc1	0.7%	-9.6	-0.5	·	12.2	10.4%	-11.1
CCn1c(COc2ccc(=O)n(-c3ccccc3)n2)nnc1SCc1ccc(OC)cc1	-1.9%	-4.5	6.4	-2.5	4.7	14.1%	·
Cn1ncc(Br)c1C(=O)Nc1ccc(Br)cn1	10.1%	5.1	10.5	0.8	-5.6	16.0%	-8.9
CN(C(=O)Cn1cc(C#N)c2ccccc21)c1ccccc1	0.1%	-7.6	10.9	-8.6	-1.8	5.5%	-18.3
Cc1ccc(NC(=O)c2ccco2)c([N+](=O)[O-])c1	0.7%	12.4	-12.3	-12.3	-5.1	-4.9%	?
O=C1c2ccccc2C(=O)N1CCCCON1C(=O)c2ccccc2C1=O	1.5%	0.7	2.1	-1.8	-1.9	-4.7%	-6.5
CCOC(=O)N1CCc2c(sc3nc4n(c(=O)c23)N=C(c2ccc(OC)cc2)CS4)C1	4.2%	6.4	-8.6	-13.8	0.9	4.8%	2.8
Cc1nc(NC(=S)NC(=O)c2cccs2)ccc1Br	-2.3%	-18.5	-9.6	-2.0	-3.1	9.6%	-9.4
CCN1CC(CN(C)Cc2nc(-c3ccco3)oc2C)CC1=O (centres undefined)	0.0%	-2.4	2.7	6.7	0.4	4.1%	13.4
COc1cc(OC)c(NC(=O)c2ccc(Br)o2)cc1Cl	0.2%	-0.7	-22.7	-19.3	-4.6	-7.8%	-21.7

Compound activity (PubChem BioAssay)
